VDR inhibitor: Inhibitors of the vitamin D receptor (VDR): qHTS; 400,000 tested, 0.93% active; Potency, µM, for the others: max response, negative = inhibition, usual class: inhibitors; AID 504847, 2011; Vitamin D3 receptor (Homo sapiens), P11473; VDR-SRC2-3 peptide fluorescence polarization, 2 h; active = well fitted inhibition curve with a large enough effect; inconclusive = small, poorly fitted or top-dose-only effect, or another doubt; inactive = no such curve, though single readings can be large or run the other way; note: series mostly up to about 120 µM
Target sequence (P11473 whole entry, looked up): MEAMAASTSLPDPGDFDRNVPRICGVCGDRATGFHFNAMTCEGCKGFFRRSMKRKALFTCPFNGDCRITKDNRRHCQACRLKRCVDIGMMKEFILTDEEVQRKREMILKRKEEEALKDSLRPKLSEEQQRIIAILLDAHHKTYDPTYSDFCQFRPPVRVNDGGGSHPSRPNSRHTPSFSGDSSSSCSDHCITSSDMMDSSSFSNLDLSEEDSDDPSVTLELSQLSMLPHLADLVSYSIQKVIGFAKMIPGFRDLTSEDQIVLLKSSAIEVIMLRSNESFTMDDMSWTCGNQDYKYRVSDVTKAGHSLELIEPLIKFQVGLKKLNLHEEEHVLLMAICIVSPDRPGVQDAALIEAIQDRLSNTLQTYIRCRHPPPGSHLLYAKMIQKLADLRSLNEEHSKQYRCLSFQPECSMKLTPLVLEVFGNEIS
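Two reagent solutions held at 4 deg C in the dark were dispensed, compounds pinned at 23 nl, and the mixture incubated 2 h at room temperature. Read-out: fluorescence polarization of VDR–SRC2-3 peptide binding.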
Active calls of the source: *; ? = inconclusive; [ ] = remark or other dose. % is set by controls: 0 for no effect and ±100 for the full control effect; potency is the fitted concentration of half-maximal effect.

SMILES | VDR inhibitor
COc1ccccc1CNC(=O)CCNC(=O)Cn1cnc2ccccc2c1=O | 0.3%
COc1ccccc1CCNC(=O)CCn1nc(C)c2c(C)n(-c3ccccc3)nc2c1=O | 4.3%
O=C(NC(=S)NCc1ccccc1)c1cccc([N+](=O)[O-])c1 | -2.0%
COc1ccc(S(=O)(=O)NCC2CCC(C(=O)NCc3ccc(F)cc3)CC2)cc1 (configuration not stated) | -5.1%
CCSc1nnc(NC(=O)c2nc(-c3ccccc3)n(-c3ccccc3)n2)s1 | 1.4%
CCN(CC)C(=O)C1CCC(C)(C(=O)O)C1(C)C (configuration not stated) | -5.9%
CSCCC(NS(=O)(=O)c1ccccc1)C(=O)Nc1nccs1 (configuration not stated) | 7.6%
O=C(c1cccc(Br)c1)N1CCN(C(=O)N2CCOCC2)CC1 | 5.2%
COCCSc1nnc(NC(=O)CS(=O)(=O)c2ccccc2)s1 | 2.9%
Cc1nc(NCCN2CCOCC2)c2nnn(Cc3ccccc3Cl)c2n1 | 1.6%
COc1ccc(CCNc2cc(C)nc3c(-c4ccccc4)c(C)nn23)cc1OC | -20.6%
CCn1c(-c2cc(-c3cc(OC)ccc3OC)nc3ccccc23)n[nH]c1=S | 7.8%
CCC(=O)N1N=C(c2ccc(NS(=O)(=O)c3ccc(C)cc3)cc2)CC1c1ccco1 (configuration not stated) | 2.3%
CS(=O)c1ccccc1-c1nc(-c2ccc([N+](=O)[O-])cc2)no1 (configuration not stated) | 12.2%
CCNC(=S)N/N=C/c1c(C)nn(-c2cccc(Cl)c2)c1Cl | 2.0%
Cc1n(CC(=O)c2ccc(F)cc2)c2ccccc2[n+]1C | -7.2%
COc1ccc(Nc2nc3ccccc3nc2C)cc1 | -9.8%
CCNC(=S)N/N=C(\C)c1ccco1 | 8.7%
O=[N+]([O-])c1ccccc1-n1cnc2ccccc21 | 13.5%
O=C(N1CCN(c2ccc(F)cc2)CC1)C12CC3CC(CC(C3)C1)C2 | 8.0%
O=C(Nc1nc(-c2nc3ccccc3s2)cs1)C1CC1 | -11.5%
CC[C@H](C)[C@@H](CN[C@H](C)CNC)NCCC(c1ccccc1)c1ccccc1 | -13.0%
CC(=O)Nc1ccn(C2OC(C(COC(C)=O)NC(=O)C(COCc3ccccc3)NC(=O)OC(C)(C)C)C(OC(C)=O)C2OC(C)=O)c(=O)n1 (configuration not stated) | -4.0%
CC(C)(C)SC(=O)CC1NS(=O)(=O)OCC1NC(=O)OCC(Cl)(Cl)Cl (configuration not stated) | 11.8%
Cn1c(-[n+]2c(-c3ccccc3)cc(-c3ccccc3)cc2-c2ccccc2)nc2cc([N+](=O)[O-])ccc21 | -12.0%
CCCn1c(SCC(=O)Nc2ccccc2Cl)nc(O)cc1=O | -12.9%
Cc1ccc(-c2nn(-c3ccccc3)cc2CO)o1 | -4.4%
O=C(NN1C(=O)C2C(C1=O)C1C=CC2C12CC2)c1ccccc1 (configuration not stated) | -9.8%
COc1cc(OC)c(C2C(C#N)=C(N)OC3=C2C(=O)CC(C)(C)C3)cc1OC (configuration not stated) | -2.1%
Cc1cc(CN2CCOCC2)c(O)c(C2(C)CCCCC2)c1 | 19.3%

A different layout for 2 compounds above:
SMILES,VDR inhibitor
CCNC(=S)N/N=C(\C)c1ccco1,8.7%
O=[N+]([O-])c1ccccc1-n1cnc2ccccc21,13.5%

(more compounds)
SMILES | VDR inhibitor
COC(=O)C1=C(C)N(c2ccc(OC)c(OC)c2)C(=O)/C1=C\c1ccco1 | 32.7%[activator]
O=c1c2c([nH]c3ccccc13)CCCCCC2 | 9.3%
CCc1sc(NC(=O)C(C)C)nc1-c1ccccc1 | 14.1%
Cc1cccc(CCNC(=O)C2CCC(CNS(=O)(=O)c3c(C)cc(C)cc3C)CC2)c1 (configuration not stated) | 1.0%
COc1ccc(NC(=O)N2CCN(c3cccc(C(F)(F)F)c3)CC2)cc1OC | -0.2%
Cc1ccc(NC(=O)NNC(=O)C2CC(c3cccnc3)=NO2)cc1 (configuration not stated) | 4.6%
Cc1ccc(C(=O)c2c(NC(=O)c3ccccc3)sc(C)c2C)cc1 | ?
CCC(C)NC(=O)CSc1ccc(NC(C)=O)cc1 (configuration not stated) | 0.4%
CCC1(c2ccccc2)NC(=O)N(CC(=O)c2ccc3c(c2)OCO3)C1=O (configuration not stated) | 7.4%
Cc1nnc(NCc2ccncc2)c2ccccc12 | -3.7%
C/C(=N/NC(=O)c1ccc(Cl)s1)c1ccc(NC(=O)COc2ccc(Cl)cc2)cc1 | -4.9%
CC(C)NC(=O)COCc1cc(-c2ccc3c(c2)OCO3)on1 | -2.8%
Cc1ccc(-c2nn(CC(=O)NCc3ccccn3)c(=O)c3ccccc23)cc1S(=O)(=O)N(C)C | 13.5%
O=C(COC(=O)Cc1ccc(Br)cc1)NCC1CCCO1 (configuration not stated) | -5.6%
O=C(O)CCCNc1ccc(S(=O)(=O)N2CCCCC2)cc1 | -18.7%
NS(=O)(=O)c1ccc(CCNC(=O)C(=O)c2c[nH]c3ccccc23)cc1 | -19.2%
O=C(CCNS(=O)(=O)c1cccc2nonc12)NC1CCCCCC1 | 5.5%
COCCn1c(SCC(=O)Nc2cc(OC)ccc2OC)nc2c(c1=O)SC(C)C2 (configuration not stated) | 7.4%
CC1CCN(CCCNC(=O)C2CCC(CNS(=O)(=O)c3cccc4nsnc34)CC2)CC1 (configuration not stated) | -18.8%
Cc1cc(NC(=O)CSc2nnc(C(C)N(C)C)n2-c2ccc(F)cc2)no1 (configuration not stated) | 6.5%
COc1ccc(S(=O)(=O)Nc2ccc(-c3ccc4nnc(C)n4n3)cc2)c(OC)c1 | 13.9%
C=C(C)CNC(=S)N=Nc1c(O)[nH]c2ccc([N+](=O)[O-])cc12 | -6.8%
CNc1ncc(C(=O)c2ccc(Cl)c(Cl)c2)s1 | 13.1%
CCOc1ccc(CNC(=O)CCc2cn(CC)c3ccccc23)cc1 | 4.5%
COc1cc2cc(C#N)c(SCC(=O)N3CCOCC3)nc2cc1OC | 6.1%
CC(=O)c1ccc(NC(=O)C2CCCN(S(=O)(=O)c3c(C)[nH]c(=O)[nH]c3=O)C2)cc1 (configuration not stated) | 0.0%
COCc1cc(/C=N\NC(=O)Cc2ccc(OC)cc2)ccc1OC | -4.3%
CC(=O)N1c2ccc(S(=O)(=O)NCC3CCC(C(=O)Nc4ccc(C)cc4)CC3)cc2CC1C (configuration not stated) | 12.2%
Cc1ccc(-c2c3c(=O)n(C)c(=O)n(C)c3c3c(C)nc4ccccc4n23)cc1 | -11.9%
CCOC(=O)c1ccc(Nc2ncnc3ccccc23)cc1 | 3.5%
COC(=O)c1ccccc1NC(=O)CSc1n[nH]c(-c2cccnc2)n1 | -15.8%
CCOC(=O)CC1C(=O)NCCN1C(=O)NC1CCCCC1 (configuration not stated) | -1.2%
Cc1ccc(C)c(-n2cc(-c3ccc(Cl)cc3)nc2SCC(=O)NC2CCS(=O)(=O)C2)c1 (configuration not stated) | -11.4%
CCCCN1C2=NCCCN2c2cc(C)c(C)cc21 | -8.0%
Cc1noc(C)c1COC(=O)c1ccc2c(c1)OCO2 | 0.4%
COc1cccc(CNC(=O)c2nc(Cn3nc(C)c(Br)c3C)no2)c1 | 4.9%
Brc1ccc(C2=Nc3ccccc3C(c3ccncc3)=NN2)cc1 | -16.3%
O=C(CSc1nnc(CNC(=O)c2ccc(F)cc2)o1)NCC1CCCO1 (configuration not stated) | 0.1%
COc1ccc(-c2nc3scc(CCNS(=O)(=O)c4ccc(F)cc4F)n3n2)cc1OC | 1.3%
CCOC(=O)c1oc2c(CN3CCN(CCO)CC3)c(O)c(CC)cc2c(=O)c1-c1nc2ccccc2s1 | -0.6%
C/C(=N\NC(=O)c1ccc(N(C)C)cc1)c1cccnc1 | -11.8%
O=[N+]([O-])c1cc(Cl)ccc1N1CCN(c2ccccc2O)CC1 | -15.8%
CN(C)c1ccc(CNC(=O)c2cc3ccccn3n2)cc1 | 4.4%
CN(C(=O)CSc1nc(C2CC2)n(-c2ccccc2)n1)C1CCS(=O)(=O)C1 (configuration not stated) | -10.0%
COc1ccc(-n2cnnc2SCC(=O)N(C)C2CCS(=O)(=O)C2)cc1 (configuration not stated) | -18.6%
O=C(CS(=O)(=O)c1cccc(Cl)c1)Nc1ccccc1Cl | 7.3%
COCCn1c(SCC(=O)NN2C(=O)NC(C)(c3ccccc3)C2=O)nnc1-c1ccncc1 (configuration not stated) | 1.9%
O=C(CNc1ccccc1Cl)c1ccc(Br)cc1 | ?
O=C(c1ccc(NS(=O)(=O)c2cccc([N+](=O)[O-])c2)cc1)N1CCN(C(=O)c2ccco2)CC1 | 7.6%
CC(C)CCN1CCN(C2CCN(c3ccccc3)CC2)CC1CCO (configuration not stated) | 0.3%
COC(=O)C1=C(C)N(CCCC(=O)O)C(=O)NC1c1cc2c(cc1[N+](=O)[O-])OCO2 (configuration not stated) | -10.4%
CC(C)(C)NC(=O)NC(=O)CN1CCN(S(=O)(=O)c2ccc3c(c2)CCCC3)CC1 | -8.6%
CC(C)c1nnc(NC(=O)CCCCCN2C(=O)C3C4C=CC(C4)C3C2=O)s1 (configuration not stated) | -10.7%
Cc1cc2occ(CC(=O)NNC(=O)c3ccccc3)c2cc1C | -8.4%
CCC(=O)Nc1ccc(OC)cc1OC | ?
CN(C(=O)COC(=O)CNC(=O)C12CC3CC(CC(C3)C1)C2)C1CCS(=O)(=O)C1 (configuration not stated) | 9.0%
CCOC(=O)c1c(S(=O)(=O)NCc2cccs2)c(C)n(C)c1C | 0.9%
CCN1CCC(N(Cc2ccc(F)cc2)C(=O)Nc2ccc(C)c(F)c2)CC1 | 6.6%
CCOc1ccc(N(C)S(=O)(=O)c2ccc3[nH]cc(C(=O)NCC(OC)OC)c(=O)c3c2)cc1 | -10.4%
COc1ccc(CCNC(=O)c2ccc(-c3cccc([N+](=O)[O-])c3)o2)cc1OC | 12.4%
Next section
SMILES | VDR inhibitor
CCCC(c1nnnn1Cc1ccc(F)cc1)N1CCN(C2CCCCC2)CC1 (configuration not stated) | -4.3%
CC(C)CCNC(=O)COc1ccc(N(C)S(=O)(=O)c2ccc(F)cc2)cc1 | 7.6%
Cc1nc2ccccn2c1C(=O)NNC(=O)Nc1cccc(C(F)(F)F)c1 | 7.4%
Cc1cc(C)cc(-n2c(SCC(=O)Nc3ccccc3F)nc3c(oc4ccccc43)c2=O)c1 | -6.6%
COc1cc(NC(=O)c2cccc(NC3=NC4CS(=O)(=O)CC4S3)c2)cc(OC)c1OC (configuration not stated) | -8.5%
CC1(c2nnc(-c3ccncc3)o2)CC(c2cccc(Cl)c2)=NO1 (configuration not stated) | 9.9%
COc1ccc(/C(C)=N/OC/C(O)=C(\C#N)c2nc3ccccc3[nH]2)cc1 | 17.2%
Cc1cccc(OCCSc2cc(C)nc(N)n2)c1 | -9.3%
NC(=O)[C@H]1CC2(CC(c3cccc(NC(=O)[C@H]4CCC(=O)N4)c3)=NO2)CN1C(=O)c1cc([N+](=O)[O-])cc([N+](=O)[O-])c1 (some centres not stated) | -7.7%
O=C(Nc1cc([N+](=O)[O-])c2[nH]c(=O)c3ccccc3c2c1)C(F)(F)F | -2.0%
CCc1ccccc1NC(=O)CC1Sc2ccc(C(F)(F)F)cc2NC1=O (configuration not stated) | 7.4%
COc1ccc(CNC(=O)CCc2nc(-c3ccc(C)cc3)no2)c(OC)c1 | 9.2%
CCOC(=O)Nc1ccc2nc(Sc3ccc(Cl)cc3)sc2c1 | -4.4%
Cc1ccccc1C(=O)NC1CCN(C(=O)NC2CCCCC2)CC1 | -9.8%
CN(Cc1ccccc1)C(=O)c1ccccc1NC(=O)c1ccccc1 | 0.0%
Cc1cccnc1Nc1nc(-c2ccccc2)cs1 | -27.4%
O=C(CN(C(=O)CCC(=O)Nc1nccs1)c1ccc(F)c(Cl)c1)NCC1CCCO1 (configuration not stated) | -0.4%
CC(C)Oc1ccc(S(=O)(=O)N2CCOCC2)cc1NC(=O)C(C)Oc1ccc(F)cc1 (configuration not stated) | -2.6%
COc1cc2c(cc1OC)C(c1cc(OC)c(OC)c(OC)c1)NCC2 (configuration not stated) | 10.6%
Cc1ccnc(NC(=O)/C=C/c2ccccc2Cl)c1 | -20.5%
CCOCCn1c(CN2CCN(c3ccc(OC)cc3)CC2)nc2c1c(=O)n(C)c(=O)n2C | -13.0%
O=C(COC(=O)c1ccccc1C(=O)c1ccccc1)Nc1ccc(SC(F)F)cc1 | 9.0%
Cc1ccc(-n2ncc3c(=O)[nH]c(SCC(=O)N4CCCCC4)nc32)cc1 | 6.5%

Ordered by formula weight (falling): part of the list above.
SMILES | VDR inhibitor
O=C(CN(C(=O)CCC(=O)Nc1nccs1)c1ccc(F)c(Cl)c1)NCC1CCCO1 (configuration not stated) | -0.4%
CC(C)Oc1ccc(S(=O)(=O)N2CCOCC2)cc1NC(=O)C(C)Oc1ccc(F)cc1 (configuration not stated) | -2.6%
CCOCCn1c(CN2CCN(c3ccc(OC)cc3)CC2)nc2c1c(=O)n(C)c(=O)n2C | -13.0%
O=C(COC(=O)c1ccccc1C(=O)c1ccccc1)Nc1ccc(SC(F)F)cc1 | 9.0%
Cc1ccc(-n2ncc3c(=O)[nH]c(SCC(=O)N4CCCCC4)nc32)cc1 | 6.5%
COc1ccc(CNC(=O)CCc2nc(-c3ccc(C)cc3)no2)c(OC)c1 | 9.2%
CCOC(=O)Nc1ccc2nc(Sc3ccc(Cl)cc3)sc2c1 | -4.4%
COc1ccc(/C(C)=N/OC/C(O)=C(\C#N)c2nc3ccccc3[nH]2)cc1 | 17.2%
COc1cc2c(cc1OC)C(c1cc(OC)c(OC)c(OC)c1)NCC2 (configuration not stated) | 10.6%
O=C(Nc1cc([N+](=O)[O-])c2[nH]c(=O)c3ccccc3c2c1)C(F)(F)F | -2.0%
CN(Cc1ccccc1)C(=O)c1ccccc1NC(=O)c1ccccc1 | 0.0%
Cc1ccccc1C(=O)NC1CCN(C(=O)NC2CCCCC2)CC1 | -9.8%
Cc1cccc(OCCSc2cc(C)nc(N)n2)c1 | -9.3%
Cc1ccnc(NC(=O)/C=C/c2ccccc2Cl)c1 | -20.5%
Cc1cccnc1Nc1nc(-c2ccccc2)cs1 | -27.4%

Screens from PubChem.

Not all compounds are listed; count on the stated rates, not on these rows.
